Bioassay records from PubChem.
NPR1 antag = human Npr1 receptor antagonism; P16066; HEK293 hNpr1 GloSensor cGMP, ANP-stimulated luminescence; Potency, µM (highest dose often 46.3 µM), inactives show at the top dose activity change, negative = inhibition, hits mostly inhibitors; 76,000 tested, 1.6% active; AID 1347048; active = well fitted inhibition curve with a large enough effect; inconclusive = small, poorly fitted or top-dose-only effect; inactive = no such curve, though single readings can be large or run the other way;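 also: nearly all actives have a fitted effect of over 60% in size; nearly all hits also lower the signal before the agonist is added; a reference antagonist and vehicle were the controls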
Target sequence (P16066 whole entry, looked up): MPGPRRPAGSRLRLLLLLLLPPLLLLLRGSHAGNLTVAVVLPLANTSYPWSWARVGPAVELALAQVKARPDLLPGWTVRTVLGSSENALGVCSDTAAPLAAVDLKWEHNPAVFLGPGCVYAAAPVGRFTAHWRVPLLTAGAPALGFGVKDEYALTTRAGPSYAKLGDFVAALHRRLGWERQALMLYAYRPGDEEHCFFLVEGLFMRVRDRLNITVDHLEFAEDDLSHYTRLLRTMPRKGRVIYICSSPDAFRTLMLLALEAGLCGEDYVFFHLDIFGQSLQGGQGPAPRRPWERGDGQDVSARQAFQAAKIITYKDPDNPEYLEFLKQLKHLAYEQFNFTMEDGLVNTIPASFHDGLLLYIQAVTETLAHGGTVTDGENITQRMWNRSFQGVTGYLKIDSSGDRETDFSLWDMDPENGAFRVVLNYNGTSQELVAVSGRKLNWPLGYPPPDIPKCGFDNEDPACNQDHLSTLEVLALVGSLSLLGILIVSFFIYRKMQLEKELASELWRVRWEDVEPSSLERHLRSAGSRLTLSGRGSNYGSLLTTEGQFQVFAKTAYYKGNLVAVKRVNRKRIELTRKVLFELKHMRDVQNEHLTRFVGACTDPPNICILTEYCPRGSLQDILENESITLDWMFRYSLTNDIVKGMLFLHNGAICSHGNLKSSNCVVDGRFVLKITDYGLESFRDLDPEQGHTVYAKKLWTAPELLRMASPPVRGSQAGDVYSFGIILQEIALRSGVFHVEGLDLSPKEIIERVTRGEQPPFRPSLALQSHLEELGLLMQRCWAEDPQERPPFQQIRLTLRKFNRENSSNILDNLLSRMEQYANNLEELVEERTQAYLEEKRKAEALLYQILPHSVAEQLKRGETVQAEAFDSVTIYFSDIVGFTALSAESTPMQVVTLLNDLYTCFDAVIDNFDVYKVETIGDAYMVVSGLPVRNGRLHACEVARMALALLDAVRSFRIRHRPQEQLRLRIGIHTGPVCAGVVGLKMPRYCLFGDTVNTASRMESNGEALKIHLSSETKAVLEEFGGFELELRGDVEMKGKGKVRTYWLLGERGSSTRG
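Compound pre-incubated 30 min at room temperature on GloSensor-loaded HEK293 cells stably carrying hNpr1 and the pGS-40F cGMP biosensor. Stimulation uses hNppA at 0.1 nM final; luminescence is taken at baseline and 20 min post-agonist.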
* = called active by the depositor; ? = inconclusive; [ ] = another dose, or the depositor's remark. % is scaled to controls: 0 for no effect and ±100 for the full control effect; potency is read from the fitted curve at half-maximal effect. The list is partial; the hit share may differ from the screen's.

SMILES	NPR1 antag
COC[C@H]1CCCN1C[C@@H]1C=C(C)[C@H](Cc2nnc(-c3cccnc3)o2)C[C@H]1C(C)C	-4%[70.6 µM]
CNC(=O)[C@@H]1CN(C(=O)c2conc2C)C[C@H]1COC	2%
O=C([C@H]1O[C@H](CCN2CCN(c3ccccc3)CC2)CC[C@@H]1O)N1CCOCC1	4%[70.6 µM]
CCN1CCN(CCNC(=O)c2cc(-c3ccc(Cl)cc3)cn2CC)CC1	-2%
Cc1noc(C)c1CCCNC(=O)c1ccc(N2CCN(CC3CC3)CC2)nc1	14%
COCC1CN(Cc2ccc(Cl)c(F)c2)CC12CCNCC2 (stereo unspecified)	-4%
O=C(c1ccncc1)N1CCC[C@H]1c1nc(-c2ccccc2)no1	7%
Cc1ccc(C(=O)N(C)Cc2ccc(F)cc2)cc1	12%[70.6 µM]
COCC1CN(C(C)=O)CC12CCN(C(=O)NCc1ccc(F)cc1)CC2 (stereo unspecified)	8%
COC(=O)CN1C(=O)[C@@H]2C[C@@H](O)CN2C2(CN(C3CCCC3)C2)C1=O	2%[70.6 µM]
Cc1nc(N2CCC(NC(=O)C3CCC3)CC2)cc(C(F)(F)F)n1	7%
CO[C@H]1C(=O)N(C(C)C)[C@H]1C1CCNCC1	-4%
Cc1cccc(CCCNC(=O)C2CC(=O)N(Cc3cccnc3)C2)c1 (stereo unspecified)	4%
COc1ccccc1-n1cc(C(=O)NC(Cc2ccco2)C(=O)O)cn1 (stereo unspecified)	0%
CCCOCCNC(=O)c1c(C)noc1-c1cccs1	0%

Look-ups from above.
`CNC(=O)[C@@H]1CN(C(=O)c2conc2C)C[C@H]1COC` in NPR1 antag reads 2%
`Cc1cccc(CCCNC(=O)C2CC(=O)N(Cc3cccnc3)C2)c1` (stereo unspecified) in NPR1 antag reads 4%

(next part)
SMILES	NPR1 antag
CN(C)C[C@H]1C[C@@H](CO)CN(C(=O)c2ccccc2OC(F)(F)C(F)F)C1	-1%
COCCNC(=O)C[C@@H]1C[C@H]2O[C@H](CNC3CCOCC3)[C@@H](O)[C@H]2O1	1%[70.6 µM]
C[C@@H]1CN(Cc2nnnn2CC(=O)NC2CCN(Cc3ccccc3)CC2)C[C@H](C)O1	4%
Cc1ccc(CN2CCC(N3CC(OCC4CC4)C34CCOCC4)CC2)s1 (stereo unspecified)	-9%
O=C(c1cc(F)ccc1F)N1CCC(n2cc(-c3nc(-c4ccccc4)no3)nn2)C1 (stereo unspecified)	-24%
Cc1cccc(CN2CCCN(S(=O)(=O)c3ccccc3)CCC(=O)NCC2)c1	-9%
CN1C(=O)C2(CCN(C(=O)c3ccc4c(c3)OCO4)C2)c2ccccc21 (stereo unspecified)	5%
Cc1cccc2c1nc1n2[C@@H](CNC2CCC2)COC1	-6%[70.6 µM]
O=C(O)CCc1nc(C2CCOCC2)nn1CC1CCCCC1	5%
COCc1cn2c(=O)n(C)cc(-c3ccnc(OC)c3)c2n1	7%[70.6 µM]
O=C(c1ccccc1F)N1CCC2(Cc3ccccc3NC2=O)C1 (stereo unspecified)	-17%[70.6 µM]
COCC(=O)Nc1ccc(-c2c(-c3cccc(OC)c3)nn(-c3ccccc3)c2OC(C)=O)cc1	-2%
CCn1cc(S(=O)(=O)N2CCC3(CC2)C(C(=O)O)CC(=O)N3C)c(C)n1 (stereo unspecified)	7%
CC(C)c1noc(-c2cn(C3CCN(C(=O)c4ccc(F)c(F)c4)CC3)nn2)n1	0%
Cc1nc(CN2C(=O)OC3(CCN(Cc4c[nH]c5ccccc45)CC3)C2(C)c2ccccc2)cs1 (stereo unspecified)	-21%

6 records drawn at random from those above, as already listed:
SMILES	NPR1 antag
Cc1nc(CN2C(=O)OC3(CCN(Cc4c[nH]c5ccccc45)CC3)C2(C)c2ccccc2)cs1 (stereo unspecified)	-21%
O=C(c1cc(F)ccc1F)N1CCC(n2cc(-c3nc(-c4ccccc4)no3)nn2)C1 (stereo unspecified)	-24%
O=C(c1ccccc1F)N1CCC2(Cc3ccccc3NC2=O)C1 (stereo unspecified)	-17%[70.6 µM]
C[C@@H]1CN(Cc2nnnn2CC(=O)NC2CCN(Cc3ccccc3)CC2)C[C@H](C)O1	4%
CN(C)C[C@H]1C[C@@H](CO)CN(C(=O)c2ccccc2OC(F)(F)C(F)F)C1	-1%
CN1C(=O)C2(CCN(C(=O)c3ccc4c(c3)OCO4)C2)c2ccccc21 (stereo unspecified)	5%

(list continues)
SMILES	NPR1 antag
COc1ccc(C(=O)N2CC[C@@H](CC(=O)O)[C@@H](CCN3CCCN(C(C)=O)CC3)C2)cc1	1%
COc1ccc(C(=O)N[C@@H]2CCC[C@@H]2C(=O)NCCC(C)C)cc1	4%
Cc1ccc(CCC(=O)N2CCC(Cn3cc(CO)nn3)CC2)cc1C	1%
COc1ccc(CNC(=O)CC2CCCN(c3cn[nH]c(=O)c3)C2)cc1 (stereo unspecified)	4%
CCOc1ccccc1C(=O)NCc1nnc2ccc(-c3ccc(C)c(C)c3)nn12	-4%
CCC1(N2CCN(S(=O)(=O)c3cc(F)cc(F)c3)CC2)CCN(S(C)(=O)=O)C1 (stereo unspecified)	0%
O=C(NCC1(COc2cccnc2)C[C@@H](O)[C@@H](O)C1)c1cnccn1 (stereo partly specified)	-1%[70.6 µM]
CC(C)CN(C(=O)CC1COc2ccc(C(=O)N(C)C)cc2N1C)C1CC1 (stereo unspecified)	4%
CCCCCCOC(=O)C1=CN(C)S(=O)(=O)N=C1C	?
O=C(O)CCc1cc2n(n1)CCCN(C(=O)CN1CCOC1=O)C2	1%
O=C(NCC1(COc2cnccn2)C[C@@H](O)[C@@H](O)C1)C1CCOCC1 (stereo partly specified)	-3%[70.6 µM]
C=CCNC(=O)C(NC(=O)c1ccc(OC)cc1)C1CCN(C(=O)c2cccc(OC)c2)CC1 (stereo unspecified)	2%
Cc1cc(CN(C)c2cc(C3CC(N)C3)nc(N)n2)no1 (stereo unspecified)	-13%
O=C(C1CCC(CO)CC1)N1CCC2(CCC(=O)N(C3CC3)C2)CC1 (stereo unspecified)	3%
CN(Cc1nccs1)C(=O)CC(c1ccccc1)c1cccc(Cl)c1 (stereo unspecified)	-26%
COc1ccc(Nc2cc3c(cn2)CN(CCc2ccccc2)CCN3)cn1	-7%[70.6 µM]
CC(=O)N1CCN([C@H]2[C@@H]3OC[C@@H](O3)[C@@H](NCc3ccc4c(c3)OCO4)[C@@H]2O)CC1	4%[70.6 µM]
Cc1ccc(CN(C(=O)c2ccco2)c2ccc(CC(=O)NCC3CCCO3)cc2)cc1 (stereo unspecified)	0%
Clc1cccc(CN2CC[C@H](c3nc4ccccc4[nH]3)C2)c1	25µM*
CCc1ccc(NC(=O)Cn2c(-c3ccc(F)cc3)nc(C)c(CCO)c2=O)cc1	2%
Cc1ncsc1CCC(=O)N[C@H](c1cccs1)C1CC(O)C1 (stereo partly specified)	3%
O=C(NCc1nnc2n1CCCC2)c1cccc(C2CCNC2)c1 (stereo unspecified)	4%
O=C(C[C@H]1NC(=O)c2ccccc2NC1=O)NC1CCCCC1	-5%
O=C1CCN(C(=O)C2CCCC2)CCCC(C(=O)N2CCN(c3ccccn3)CC2)CCN1 (stereo unspecified)	1%
CN1CCCC2(C1)CN(Cc1cccnc1)c1ccc(C(=O)NCc3cccs3)cc12 (stereo unspecified)	6%[70.6 µM]
CN1CCN(C(=O)CC[C@@H]2CNC(=O)[C@@H]3C[C@H](NC(=O)c4cccc(F)c4)CN23)CC1	0%[70.6 µM]
CCN1CCc2[nH]cnc2C12CCN(C(=O)c1cccc3nccnc13)CC2	1%
COc1cccc(CC(=O)N[C@@H]2CN(Cc3ccncc3)C[C@H]2CN(C)C)c1	0%
COc1ccc(C(=O)N2CCC(O)(CO)CC2)c(OC)c1OC	7%
CCOc1ccc(-c2cc3c(=O)n(CCNC(=O)c4cccc(N(C)C)c4)ccn3n2)cc1	-28%

Printed as active in NPR1 antag, of those listed so far:
SMILES	NPR1 antag
Clc1cccc(CN2CC[C@H](c3nc4ccccc4[nH]3)C2)c1	25µM*

(next part)
SMILES	NPR1 antag
COc1ccc(NC(=O)N2CCOc3ccc(CN4CCc5ccccc5C4)cc3C2)cc1	-25%
CCC1(C(=O)Nc2ccc(OC)cc2)CCCCC(=O)N1 (stereo unspecified)	-1%
CN(C)CCCn1ccnc1C1CCCN(C(=O)N(C)c2ccccc2)C1 (stereo unspecified)	4%
CCc1cc(N2CCC(Cc3nncn3C)CC2)nc(N2CCOCC2)n1	0%
CCOCCCNC(=O)N1CCC2(CC1)CC(N(C(=O)c1ccccc1)C1CC1)CCO2 (stereo unspecified)	-5%
CCOc1ccc2c(n1)CCN(C(=O)Nc1ccc(CC)cc1)C2	-30%
O=C(NCCc1noc(-c2ccccc2)n1)c1ccoc1	-1%
COc1ccccc1C(=O)NC1CCN(c2cc(C(F)(F)F)ncn2)CC1	-25%
COc1ccc(CC(=O)Nc2ccc(=O)n3c2[C@@H]2C[C@@H](CN(C(=O)c4ccc(OC)cc4)C2)C3)cc1	0%
CCC1=C(C(=O)OC)C(c2ccccc2F)N2C(CC(=O)N3CCCC3)=CSC2=N1 (stereo unspecified)	?
COc1ccc(-c2n[nH]c3c2CC(=O)N(Cc2ccccn2)C3)cc1F	0%[70.6 µM]
c1c(CN2CCCC3(CCCO3)CC2)nn2c1CNCCC2 (stereo unspecified)	2%
O=C(NCc1ccc2c(c1)OCO2)C1CCCN(c2nc3ncccc3o2)C1 (stereo unspecified)	16%
Cc1cc(C(=O)Nc2ccc(C(O)[C@H]3COCC(=O)N3Cc3ccc(F)cc3)cc2)n(C)n1 (stereo partly specified)	-2%
CCn1cc(-c2ccc(Cl)cc2)cc1C(=O)NCCCN1CCOCC1	-1%

In the list so far, these have two or more sulfur atoms:
SMILES	NPR1 antag
CCC1(N2CCN(S(=O)(=O)c3cc(F)cc(F)c3)CC2)CCN(S(C)(=O)=O)C1 (stereo unspecified)	0%
Cc1ncsc1CCC(=O)N[C@H](c1cccs1)C1CC(O)C1 (stereo partly specified)	3%

Remaining list, next part.
SMILES	NPR1 antag
Cc1nc(CC2CCN(C(=O)Nc3ccc4c(c3)OCCO4)CC2)n[nH]1	-29%
CCc1nc2c(=O)n(CC(=O)N3CCN(c4ccc(Cl)cc4)CC3)nc(C)c2s1	2%
CC(C)c1nc(CNC(=O)c2ccc(NC[C@H]3C[C@H]4C=C[C@H]3C43CC3)nc2)no1	1%
O=C(CCn1cnc2ccccc2c1=O)N[C@@H]1COCC[C@H]1Oc1ccccn1	-2%
CC(C)c1noc(CC2CCN(C(=O)c3ccc(F)cc3Cl)CC2)n1	?
OC1CC(c2cc(N3CCC(c4nnc5n4CCCCC5)CC3)ncn2)C1 (stereo unspecified)	-7%
CCN(CC)C[C@H]1O[C@H](Cc2cc(-c3ccc(F)cc3)on2)CC[C@@H]1O	?
O=C(Cc1ccccc1)N1CCCN(c2cc(-c3ccc(Cl)cc3)[nH]n2)CC1	?
COC[C@@H]1CN(C(=O)c2ccc3[nH]ccc3c2)C[C@H]1c1ccncc1	2%
Cn1cc(CN2CCOCCNC(=O)CC2)c2ccccc21	1%
CNC(=O)[C@@H](c1ccc(OC)cc1)N1CCC[C@H]1C(=O)N1CCC1	0%[70.6 µM]
O=C(CCc1ccccc1)N1CCNc2cnc(Nc3cccnc3)nc2C1	8%[70.6 µM]
O=C(CC(c1ccccc1)c1ccccc1Cl)N1CCOCC1 (stereo unspecified)	-1%
O=C(NC[C@H]1O[C@@H](CO)[C@@H](O)[C@H]1N1CCCCC1)c1ccccc1	-2%[70.6 µM]
COc1ccccc1CCN1Cc2cc(NC(=O)Cc3cccs3)ccc2OC(C)C1=O (stereo unspecified)	-17%
CN1CCCN(C(=O)CN2CC3CC(C2)[C@H]2CCCC(=O)N2C3)CC1 (stereo partly specified)	2%
COc1cc(NC(=O)C2(Cc3ccccc3)CCCCC(=O)N2)cc(OC)c1 (stereo unspecified)	-3%
CCc1noc(-c2cn(C3CCN(C(=O)c4ccco4)CC3)nn2)n1	0%
COCc1nc(C2CCN(C(=O)NC3CCCCC3)C2)no1 (stereo unspecified)	4%
CCCCNC(=O)CC(c1cccc([N+](=O)[O-])c1)c1c[nH]c2c(CC)cccc12 (stereo unspecified)	-22%
CC(C)(N)C(=O)N1CCCC(N2CCN(c3cccc(Cl)c3)CC2)C1 (stereo unspecified)	3%
COc1ccccc1CN1CCN(C(=O)CC2CCOCC2)CC1	0%
O=C([C@@H]1C[C@H](F)CN1S(=O)(=O)Cc1cccc(Cl)c1)N1CCCCC1	0%
COCCn1c(CNCc2ccc3c(c2)OCO3)nnc1C1CC(N)C1 (stereo unspecified)	17%
CCOc1ccc(Cl)cc1CN(C)C(=O)C1CC(=O)N(CC)C1 (stereo unspecified)	7%
CN(c1cc(=O)c2ccnc(-c3ccc(F)c(Cl)c3)c2o1)C1CCOCC1	-11%[70.6 µM]
O=C(CC1CCCCC1)N1CCN(C(=O)N2CC3CC(C2)[C@H]2CCCC(=O)N2C3)CC1 (stereo partly specified)	-1%
CCOc1cc(=O)n2c(c1C(=O)Nc1cccc(SC)c1)CCCC2	-11%
O=C(C1CCOC1)N1CC(Oc2cccc(-c3nc(-c4ccccc4)no3)c2)C1 (stereo unspecified)	-19%
O=C1Nc2ccccc2CC12CCN([S+](=O)([O-])c1cccc(C(F)(F)F)c1)C2 (stereo unspecified)	-1%
N[C@@H]1CC[C@H](C(=O)N2CCN(CCCOc3ccc(F)cc3)CC2)C1	1%
O=C(Cc1c[nH]c2ccccc12)N1CC(c2nnc(-c3ccncc3)o2)C2(CCOCC2)C1 (stereo unspecified)	-4%
O=C(N[C@H]1CCN2C(=O)c3cc(-c4ccsc4)ccc3NC(=O)[C@H]12)c1cccs1	-17%[70.6 µM]
